# A1 apoptosis 2: A1 inhibitors via caspase activation, primary screen, cell-based, luminescence, HTS, two replicates; MEF A1-2A-BIM cells, caspase-Glo luminescence, 3 h; percent of clofoctol response, DMSO zero; caspase activation, % (test concentration not listed); 24,000 tested, under 10 active; AID 2465, 2010; in the data active means caspase activation above about 5.9%;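 further: wells of about 30 µL received 50 nL stock; the first replicate is given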
#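 Evaluation: Caspase-3/7 activity from luminescence increase | Assay system: A1-2A-BIM mouse embryonic fibroblasts | Quantity: 2500 MEF cells/well | Medium: RPMI-1640 plus 10% FBS | Detection: Caspase-Glo 3/7 luminescence, 1 h at room temperature | Dosing: 50 nL compound per well, pinned | Timing: Cells settled overnight, compound exposure 3 h at 37 °C, 5% CO2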
# * = called active by the depositor. Not all compounds are listed; the hit share may differ from the screen's.
SMILES,A1 apoptosis 2
C[C@@H]1CN([C@H](C)CO)C(=O)c2cccc(NC(=O)c3ccncc3)c2O[C@@H]1CN(C)Cc1ccc(-c2ccccc2)cc1,-1.4
C[C@@H]1CN([C@H](C)CO)C(=O)c2cc(NS(=O)(=O)c3cccs3)ccc2O[C@@H]1CN(C)C(=O)NC1CCCCC1,2.2
COc1ccc(CN(C)C[C@@H]2Oc3ccc(NC(=O)Nc4ccc(C(F)(F)F)cc4)cc3CC(=O)N([C@H](C)CO)C[C@H]2C)cc1,0.4
C[C@H]1CN([C@@H](C)CO)C(=O)c2cccc(NC(=O)c3ccncc3)c2O[C@H]1CN(C)C(=O)Nc1ccc(C(F)(F)F)cc1,1.2
C[C@@H]1CN([C@@H](C)CO)C(=O)c2cccc(NS(=O)(=O)c3cccs3)c2O[C@@H]1CN(C)C(=O)NC1CCCCC1,0.2
Cc1noc(C)c1NC(=O)Nc1cccc2c1O[C@@H](CN(C)Cc1ccc(Oc3ccccc3)cc1)[C@H](C)CN([C@@H](C)CO)C2=O,-0.2
C[C@@H]1CN([C@H](C)CO)C(=O)c2cc(NC(=O)Nc3ccccc3)ccc2O[C@@H]1CN(C)S(=O)(=O)c1ccccc1,-1.4
C[C@@H]1CN([C@@H](C)CO)C(=O)c2cc(NC(=O)Nc3ccc(C(F)(F)F)cc3)ccc2O[C@@H]1CN(C)C(=O)Nc1ccc2c(c1)OCO2,1.0
C[C@@H]1CCCCO[C@@H](CN(C)S(=O)(=O)c2ccccc2)[C@@H](C)CN([C@H](C)CO)C(=O)c2cc(NC(=O)Nc3ccc(C(F)(F)F)cc3)ccc2O1,-0.1
C[C@H](CO)N1C[C@H](C)[C@H](CN(C)Cc2ccccc2)Oc2ccc(NC(=O)Nc3ccccc3)cc2CC1=O,2.3
C[C@H](CO)N1C[C@H](C)[C@@H](CN(C)S(=O)(=O)c2cn(C)cn2)Oc2ccc(NS(=O)(=O)c3ccccc3)cc2CC1=O,1.0
COc1ccc(S(=O)(=O)N(C)C[C@@H]2Oc3c(NC(=O)Nc4ccc(C(F)(F)F)cc4)cccc3C(=O)N([C@@H](C)CO)C[C@H]2C)cc1,-1.6
C[C@@H]1CN([C@H](C)CO)C(=O)c2cc(NS(=O)(=O)c3ccc(F)cc3)ccc2O[C@H]1CN(C)S(=O)(=O)c1ccc(F)cc1,-0.3
O=C(NO)c1ccc(C(=O)N/N=C/c2ccc(B(O)O)cc2)cc1,0.0
C=CCOC(=O)[C@H]1[C@@H]2C(=O)O[C@@H](c3ccccc3)[C@@H](c3ccccc3)N2[C@@H](c2ccc(OCCOC(=O)[C@@H]3C[C@@H]4C(=O)NCC(=O)N4[C@@H]3c3ccc(O)cc3)cc2)[C@]12C(=O)Nc1ccc(I)cc12,-1.0

# Laid out differently: entries from further up.
Molecule	A1 apoptosis 2
C[C@@H]1CN([C@H](C)CO)C(=O)c2cc(NS(=O)(=O)c3cccs3)ccc2O[C@@H]1CN(C)C(=O)NC1CCCCC1	2.2
COc1ccc(CN(C)C[C@@H]2Oc3ccc(NC(=O)Nc4ccc(C(F)(F)F)cc4)cc3CC(=O)N([C@H](C)CO)C[C@H]2C)cc1	0.4

# The list continues.
SMILES,A1 apoptosis 2
Cc1ccc(S(=O)(=O)Nc2ccc3c(c2)C(=O)N([C@@H](C)CO)C[C@H](C)[C@@H](CN(C)S(C)(=O)=O)O3)cc1,0.9
C[C@@H]1CN([C@@H](C)CO)C(=O)Cc2cc(NC(=O)Cc3cn(C)c4ccccc34)ccc2O[C@@H]1CN(C)S(C)(=O)=O,0.8
O=C(N/N=C/c1ccc(F)cc1)c1ccccn1,-7.4
C[C@H](CO)N1C[C@H](C)[C@H](CN(C)S(=O)(=O)c2cn(C)cn2)Oc2ncc(-c3ccccc3)cc2C1=O,-0.4
C[C@@H]1CN([C@H](C)CO)C(=O)c2cc(NC(=O)Nc3ccc(C(F)(F)F)cc3)ccc2O[C@@H](C)CCCCO[C@@H]1CN(C)CC1CCCCC1,1.1
C[C@H](CO)N1C[C@H](C)[C@@H](CN(C)C)Oc2ccc(NS(=O)(=O)c3ccc(F)cc3)cc2C1=O,-1.0
C[C@@H]1CCCCO[C@H](CN(C)C(=O)CCCN(C)C)[C@@H](C)CN([C@H](C)CO)C(=O)c2cc(NC(=O)CCC(F)(F)F)ccc2O1,0.4
CNC[C@H]1Oc2c(NS(=O)(=O)c3ccc(OC)cc3)cccc2C(=O)N([C@H](C)CO)C[C@H]1C,-0.4
COc1ccc(S(=O)(=O)N(C)C[C@@H]2Oc3ncc(-c4ccc(F)cc4)cc3C(=O)N([C@H](C)CO)C[C@@H]2C)cc1,1.5
Cc1noc(C)c1NC(=O)N(C)C[C@H]1Oc2c(NS(=O)(=O)c3ccccc3)cccc2C(=O)N([C@H](C)CO)C[C@H]1C,0.2
CC(C)NC(=O)N(C)C[C@@H]1Oc2ccc(NC(=O)Nc3ccccc3)cc2C(=O)N([C@H](C)CO)C[C@@H]1C,-0.8
C[C@H]1CN([C@@H](C)CO)C(=O)CCCn2cc(nn2)CO[C@@H]1CN(C)Cc1ccc(Oc2ccccc2)cc1,0.3
CC(C)NC(=O)Nc1ccc2c(c1)C(=O)N([C@H](C)CO)C[C@H](C)[C@H](CN(C)C(=O)CCC(F)(F)F)OCCCC[C@H](C)O2,1.3
Cc1noc(C)c1NC(=O)Nc1cccc2c1O[C@@H](CN(C)CC1CCCCC1)[C@H](C)CN([C@@H](C)CO)C2=O,0.9
COc1ccc(S(=O)(=O)N(C)C[C@@H]2Oc3ccc(NS(C)(=O)=O)cc3CC(=O)N([C@H](C)CO)C[C@@H]2C)cc1,0.3

# Six compounds out of the list, arranged by SMILES length, ascending:
SMILES,A1 apoptosis 2
O=C(N/N=C/c1ccc(F)cc1)c1ccccn1,-7.4
Cc1noc(C)c1NC(=O)Nc1cccc2c1O[C@@H](CN(C)CC1CCCCC1)[C@H](C)CN([C@@H](C)CO)C2=O,0.9
COc1ccc(S(=O)(=O)N(C)C[C@@H]2Oc3ccc(NS(C)(=O)=O)cc3CC(=O)N([C@H](C)CO)C[C@@H]2C)cc1,0.3
C[C@@H]1CN([C@@H](C)CO)C(=O)Cc2cc(NC(=O)Cc3cn(C)c4ccccc34)ccc2O[C@@H]1CN(C)S(C)(=O)=O,0.8
CC(C)NC(=O)Nc1ccc2c(c1)C(=O)N([C@H](C)CO)C[C@H](C)[C@H](CN(C)C(=O)CCC(F)(F)F)OCCCC[C@H](C)O2,1.3
C[C@@H]1CCCCO[C@H](CN(C)C(=O)CCCN(C)C)[C@@H](C)CN([C@H](C)CO)C(=O)c2cc(NC(=O)CCC(F)(F)F)ccc2O1,0.4

# Continuation.
SMILES,A1 apoptosis 2
C[C@H]1CN([C@@H](C)CO)C(=O)c2cccc(NC(=O)C3CCCCC3)c2O[C@@H]1CN(C)S(=O)(=O)c1ccc(Cl)cc1,-0.9
O=C(NO)c1cccc(C(=O)N/N=C/c2cc(Br)c(O)c(Br)c2)c1,0.2
O=C(N/N=C/c1ccc(O)c(O)c1O)c1ccccc1O,-5.2
C[C@@H]1CN([C@H](C)CO)C(=O)c2cc(NS(=O)(=O)c3ccccc3)ccc2O[C@@H](C)CCCCO[C@H]1CN(C)C(=O)NC1CCCCC1,-1.8
COc1ccc(CN(C)C[C@@H]2Oc3c(NC(=O)NC(C)C)cccc3C(=O)N([C@H](C)CO)C[C@@H]2C)cc1,0.9
C[C@@H]1CCCCO[C@H](CN(C)C(=O)C2CCCCC2)[C@@H](C)CN([C@H](C)CO)C(=O)c2cc(NC(=O)CCCCCC(=O)Nc3ccccc3N)ccc2O1,2.5
Cc1noc(C)c1S(=O)(=O)N(C)C[C@@H]1OCCCC[C@@H](C)Oc2ccc(NC(=O)Nc3cccc4ccccc34)cc2C(=O)N([C@H](C)CO)C[C@H]1C,-0.5
C[C@H](CO)N1C[C@H](C)[C@H](CN(C)C(=O)Nc2ccc3c(c2)OCO3)Oc2ccc(NC(=O)CCCCCC(=O)Nc3ccccc3N)cc2CC1=O,0.3
C[C@@H]1CN([C@@H](C)CO)C(=O)c2cccc(NC(=O)C3CC3)c2O[C@@H]1CN(C)C(=O)NC1CCCCC1,0.4
C[C@@H]1CCCCO[C@H](CN(C)C(=O)c2ccncc2)[C@H](C)CN([C@@H](C)CO)C(=O)c2cc(NC(=O)c3ccncc3)ccc2O1,0.0
COc1ccc(NC(=O)Nc2ccc3c(c2)C(=O)N([C@H](C)CO)C[C@H](C)[C@@H](CN(C)C(=O)Nc2ccc4c(c2)OCO4)OCCCC[C@@H](C)O3)cc1,0.1
C[C@@H]1CCCCO[C@H](CN(C)C(=O)CCC(F)(F)F)[C@H](C)CN([C@@H](C)CO)C(=O)c2cc(NS(=O)(=O)c3ccc(F)cc3)ccc2O1,-0.2
CC(C)NC(=O)N(C)C[C@H]1Oc2ccc(NC(=O)CCC(F)(F)F)cc2C(=O)N([C@@H](C)CO)C[C@@H]1C,0.5
C[C@H](CO)N1C[C@H](C)[C@H](CN(C)C(=O)Nc2ccc(F)cc2)Oc2ccc(NC(=O)Cc3ccccc3)cc2C1=O,-1.1
CC(C)NC(=O)Nc1ccc2c(c1)CC(=O)N([C@H](C)CO)C[C@H](C)[C@H](CN(C)Cc1ccc(C(F)(F)F)cc1)O2,0.6
COc1ccc(S(=O)(=O)N(C)C[C@H]2Oc3ccc(NC(=O)Nc4ccc5c(c4)OCO5)cc3CC(=O)N([C@H](C)CO)C[C@H]2C)cc1,1.0
CCO[C@@H]1OC(C(=O)N2CCN(C)CC2)=C[C@H](c2ccc(C(F)(F)F)cc2)[C@H]1CCCO,0.7
C[C@@H]1CCCCO[C@@H](CN(C)Cc2ccncc2)[C@H](C)CN([C@@H](C)CO)C(=O)c2cc(NC(=O)Nc3ccccc3)ccc2O1,-0.8
C[C@@H]1CCCCO[C@@H](CN(C)CC2CCCCC2)[C@@H](C)CN([C@@H](C)CO)C(=O)c2cc(NS(=O)(=O)c3cn(C)cn3)ccc2O1,-0.3
C[C@H](CO)N1C[C@H](C)[C@H](CN(C)Cc2ccc(C(=O)Nc3ccccc3N)cc2)Oc2ccc(NC(=O)CCN3CCOCC3)cc2CC1=O,0.0
C[C@@H]1CN([C@H](C)CO)C(=O)Cc2cc(NC(=O)NC3CCCCC3)ccc2O[C@H]1CN(C)C(=O)Nc1ccc(C(F)(F)F)cc1,0.1
CNC[C@@H]1Oc2ccc(NC(=O)Nc3ccc(F)cc3)cc2CC(=O)N([C@@H](C)CO)C[C@H]1C,0.3
COc1ccc(CN(C)C[C@@H]2OCCCC[C@H](C)Oc3ccc(NS(=O)(=O)c4ccc(OC)cc4)cc3C(=O)N([C@H](C)CO)C[C@H]2C)cc1,-0.4
C[C@H]1CN([C@@H](C)CO)C(=O)c2cc(NS(C)(=O)=O)ccc2O[C@H]1CN(C)C,0.6
C[C@@H]1CN([C@@H](C)CO)C(=O)c2cc(NC(=O)C3CC3)ccc2O[C@@H]1CN(C)Cc1ccc(-c2ccccc2)cc1,0.0
COc1ccc(CN(C)C[C@H]2Oc3c(NS(C)(=O)=O)cccc3C(=O)N([C@H](C)CO)C[C@@H]2C)cc1,-0.1
C[C@@H]1CCCCO[C@@H](CN(C)S(=O)(=O)c2ccccc2)[C@H](C)CN([C@@H](C)CO)C(=O)c2cc(NS(=O)(=O)c3cccs3)ccc2O1,-1.1
Cc1ccc(S(=O)(=O)Nc2ccc3c(c2)C(=O)N([C@H](C)CO)C[C@@H](C)[C@H](CN(C)C(=O)NC(C)C)OCCCC[C@@H](C)O3)cc1,-0.9
O=C(N/N=C/c1cccnc1Cl)c1ccccn1,-6.8
C[C@H](CO)N1C[C@H](C)[C@@H](CN(C)Cc2ccncc2)Oc2ccc(NC(=O)CCCCCC(=O)Nc3ccccc3N)cc2C1=O,1.1
C[C@H]1CN([C@@H](C)CO)C(=O)Cc2cc(NS(=O)(=O)c3cccs3)ccc2O[C@@H]1CN(C)C(=O)Nc1cccc2ccccc12,0.9
NC(=O)NCC#Cc1ccc2c(c1)[C@]1(C(=O)N2)[C@H](c2ccc(OCCO)cc2)N2[C@H](c3ccccc3)[C@H](c3ccccc3)OC(=O)[C@H]2[C@@H]1C(=O)Nc1nc2ccccc2s1,-0.7
C[C@@H]1CN([C@@H](C)CO)C(=O)CCCn2cc(nn2)CO[C@H]1CN(C)S(=O)(=O)c1ccccc1,-0.1
C[C@H](CO)N1C[C@H](C)[C@@H](CN(C)C(=O)Nc2ccc(F)cc2)Oc2ccc(NC(=O)Nc3cccc4ccccc34)cc2CC1=O,0.2
C[C@H]1CN([C@@H](C)CO)C(=O)c2cccc(NC(=O)C3CCOCC3)c2O[C@H]1CN(C)C(=O)Nc1ccccc1,-0.7
C[C@@H]1CCCCO[C@H](CN(C)C(=O)Nc2ccc(F)cc2)[C@@H](C)CN([C@@H](C)CO)C(=O)c2cc(NS(=O)(=O)c3ccccc3)ccc2O1,-0.5
C[C@H]1CN([C@@H](C)CO)C(=O)c2cc(NC(=O)c3ccncc3)ccc2O[C@H]1CN(C)Cc1ccc(-c2ccccc2)cc1,0.3
Cc1noc(C)c1NC(=O)N(C)C[C@@H]1Oc2ccc(NC(=O)Nc3ccc(F)cc3)cc2C(=O)N([C@@H](C)CO)C[C@H]1C,-0.1
C[C@H](CO)N1C[C@H](C)[C@H](CN(C)C(=O)Nc2cccc3ccccc23)Oc2c(NS(=O)(=O)c3cn(C)cn3)cccc2C1=O,-1.2
O=C(NCc1nc2ccccc2[nH]1)C1=C[C@H](c2ccc3c(c2)OCO3)C[C@H](OCc2ccc(CO)cc2)O1,-0.6
COc1ccc(NC(=O)Nc2cccc3c2O[C@@H](CN(C)S(=O)(=O)c2cn(C)cn2)[C@@H](C)CN([C@@H](C)CO)C3=O)cc1,0.3
